From PubChem
MLL AF4-AF9 inh = inhibitors of AF4 peptide binding to AF9, primary screen, biochemical, AlphaScreen, biotin-AF4 peptide, FLAG-AF9, single point | AID 651704, 2012 | inhibition, % at 10 µM | 350,000 tested, 0.47% active;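 active = every replicate reaching a set inhibition limit, whatever the replicate mean, cut at about 25% in these data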;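 note: 0% = plate neutral control median and 100% = total signal loss; the record names both 10 and 1 µM as test concentration; the first replicate is given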
Target sequence (P42568 whole entry, looked up): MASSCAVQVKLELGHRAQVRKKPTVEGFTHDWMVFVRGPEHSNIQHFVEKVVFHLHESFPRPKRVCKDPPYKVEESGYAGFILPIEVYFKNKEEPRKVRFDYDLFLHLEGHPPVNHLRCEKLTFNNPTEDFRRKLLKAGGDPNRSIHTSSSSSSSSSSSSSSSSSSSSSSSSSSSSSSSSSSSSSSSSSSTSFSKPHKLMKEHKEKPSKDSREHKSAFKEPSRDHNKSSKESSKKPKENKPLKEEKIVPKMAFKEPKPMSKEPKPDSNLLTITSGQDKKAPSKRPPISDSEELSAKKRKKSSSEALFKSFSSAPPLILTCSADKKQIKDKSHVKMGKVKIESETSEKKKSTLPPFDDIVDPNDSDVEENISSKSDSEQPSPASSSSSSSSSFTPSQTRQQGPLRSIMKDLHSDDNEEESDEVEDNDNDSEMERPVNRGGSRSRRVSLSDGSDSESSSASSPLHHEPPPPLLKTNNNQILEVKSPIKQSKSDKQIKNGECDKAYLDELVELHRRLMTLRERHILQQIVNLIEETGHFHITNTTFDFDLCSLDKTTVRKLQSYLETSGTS
Starred values were filed as active, the others as inactive; & = joins results of further samples. These rows are one share of the data, so the mix of outcomes need not match the whole.

compound	MLL AF4-AF9 inh
COCC1CC(c2ccccc2)OC(c2ccc(NC(=O)CCCCCCC(=O)O)cc2)O1 (configuration not stated)	-3.6
O=C(O)C1(O)C[C@@H](O)C(O)[C@H](O)C1 (some centres not stated)	-1.7
CCS(=O)(=O)N[C@H]1C=C[C@@H](CC(=O)NC2Cc3ccccc3C2)O[C@H]1CO	0.1
O=NN(CCF)C(=O)NC1CCS(=O)(=O)CC1	-2.4
CCOC(=O)[C@H](Cc1c[nH]c2ccccc12)NC(=O)CN=[N+]=[N-]	1.4
C=CC[C@H](OC(=O)Nc1ccc(SC)cc1)c1ccc(OCCO)cc1	-1.5
Cc1cccc(C)c1NC(=O)C1c2ccccc2OCC(=O)N1CCc1ccccc1 (configuration not stated)	1.5
COCC(=O)N[C@@H]1C=C[C@@H](CC(=O)N2CCCCC2)O[C@H]1CO	-1.1
COc1ccccc1C(=O)Nc1ccc2c(c1)OC[C@H](C)N(CC1CC1)C[C@H](C)[C@@H](OC)CN(C)C2=O	-0.1
CC(C)(O)c1cn([C@@H]2C[C@@H]3O[C@@H](CO)CC[C@@H]3O[C@@H]2CCc2ccc(-c3cccnc3)cc2)nn1	-2.6
C=C1C(=O)OC2C1CCC(C)=CCCC1(C)OC21 (configuration not stated)	-0.6
CC1=C(C(=O)N2CCCCCC2)CC(CC(=O)NCCCN(C)C)C(=O)N1Cc1ccc(C(C)(C)C)cc1 (configuration not stated)	3.0

Filtered by structure: those above containing four or more nitrogen atoms
compound	MLL AF4-AF9 inh
CCOC(=O)[C@H](Cc1c[nH]c2ccccc12)NC(=O)CN=[N+]=[N-]	1.4
CC(C)(O)c1cn([C@@H]2C[C@@H]3O[C@@H](CO)CC[C@@H]3O[C@@H]2CCc2ccc(-c3cccnc3)cc2)nn1	-2.6
CC1=C(C(=O)N2CCCCCC2)CC(CC(=O)NCCCN(C)C)C(=O)N1Cc1ccc(C(C)(C)C)cc1 (configuration not stated)	3.0

(continued)
compound	MLL AF4-AF9 inh
CC(=O)n1cc([C@@H]2C=C(C(=O)N3CCCCCCC3)O[C@H](OCCCCO)C2)c2ccccc21	4.5
O=C(c1ccccc1)c1ccc(C(=O)N2CCN(c3ccccc3O)CC2)cc1	-7.4
CCNC(=O)C1CCCN(C(=O)c2cccc(C(F)(F)F)c2)CC1 (configuration not stated)	0.2
Cc1ccc(-c2nc3cc(C)c(Br)c(C)n3c2Cc2ccccc2)cc1	-0.1
CCC(C)C(N)C(=O)N1CCCC1C(=O)NC(C(=O)O)C(C)CC (configuration not stated)	-0.5
Cc1ccc(NC(=O)c2ncn(CC(=O)N[C@H](CO)Cc3c[nH]c4ccccc34)n2)cc1C	-8.4
COc1ccc(C#Cc2cnc3c(c2)C(=O)N([C@@H](C)CO)C[C@H](C)[C@H](CN(C)CC2CCCC2)O3)cc1	7.1
CCOC(=O)C1(C)CCCCN1C(=O)c1cccc(Cl)c1 (configuration not stated)	-1.9
CCc1nc2c(OCCOc3ccc(F)cc3)cccn2c1N(C)C(=O)c1cccs1	1.0
O=C(C[C@@H]1CC[C@H]2[C@@H](COC[C@@H](O)CN2Cc2ccc(Oc3ccccc3)cc2)O1)N1CCc2ccccc2C1	9.2
COC(=O)c1cc2c(c3c4cc(F)ccc4n(S(=O)(=O)c4cccc(C)c4)c13)C(=O)N(Cc1ccc(N(C)C)cc1)C2	-0.8
CCCCNC(=O)C[C@@H]1C[C@@]2(C(=O)OCC)CCC=C2N(Cc2cccc3ccccc23)C1=O	0.3

The list continues:
compound	MLL AF4-AF9 inh
CC(C)c1c(C(=O)Nc2ccccc2)c(-c2ccccc2)c(-c2ccc(F)cc2)n1CC[C@@H](O)C[C@@H](O)CC(=O)O	4.3
C[C@H]([C@@H](O)[C@@H](O)[C@@H](C)C(C)(C)C)[C@H]1CC[C@H]2C3CC[C@H]4C[C@H](OS(=O)(=O)O)[C@@H](OS(=O)(=O)O)C[C@]4(C)[C@H]3CC[C@]12C (some centres not stated)	-2.4
CN(C)c1ccc(-c2ccnc3c2CC(C)(C(=O)NCc2ccccc2)O3)cc1 (configuration not stated)	6.4
COc1ccc([C@@H]2C=C(C(=O)N3CCCCC3)O[C@H](OCc3ccc(CO)cc3)C2)cc1	-3.0
CCNC(=O)C[C@H]1C=C[C@@H](NC(=O)C2CCC2)[C@H](CO)O1	-5.1
O=C(NC[C@@H]1CC[C@@H]2[C@@H](CN2Cc2cccc(Cl)c2)O1)C1CCOCC1	-4.6
COc1ccccc1NC(=O)N[C@H]1CC[C@H](CCn2cc(-c3ccccc3OC)nn2)O[C@@H]1CO	0.0
O=C(NC[C@@H]1CC[C@H]2[C@H](CN2Cc2cccc(Cl)c2)O1)C1CC1	-3.8
C[C@H]1CN([C@@H](C)CO)C(=O)Cc2cc(NC(=O)Nc3ccc(C(F)(F)F)cc3)ccc2O[C@H]1CN(C)C(=O)NC1CCCCC1	1.9
O=S(=O)(NC[C@@H]1CC[C@@H]2[C@@H](CN2Cc2ccccc2C(F)(F)F)O1)c1ccccc1	-4.0
CC(=O)Nc1ccc(-c2ccnc3c2CC(C)(C(=O)NCc2cccc(Cl)c2)O3)cc1 (configuration not stated)	1.0
CC(C)(C)S(=O)N1Cc2cc(C(=O)N[C@@H]3CCN(Cc4ccccc4)C3)nc(-c3cccc(C#CCC4CCCC4)c3)c2[C@H]1CCO (some centres not stated)	1.3

Next part.
compound	MLL AF4-AF9 inh
[N-]=[N+]=Nc1ccccc1C[C@]1(C(=O)N2CCOCC2)N=C(c2ccc(OCCCO)cc2)O[C@H]1c1ccccc1	4.2
CCOC(=O)[C@]12CCCC=C1N(Cc1cccc3ccccc13)C(=O)[C@H](CC(=O)N1CCSCC1)C2	5.2
Cc1ccccc1-c1cnc(C(O)c2c(C)ccc3ccccc23)[nH]1 (configuration not stated)	3.9
O=C(NCc1ccccc1)[C@@]1(Cc2ccccc2)COC(c2ccc(OCCCO)cc2)=N1	0.9
C[C@@H]1CN([C@H](C)CO)C(=O)c2cc(N(C)C)ccc2O[C@@H](C)CCCCO[C@H]1CN(C)C(=O)Nc1cccc2ccccc12	13.3
CCN(CC)CCNC(=O)c1ccc(NC(=O)c2ccc(S(=O)(=O)N3CCCC3)cc2)cc1	-0.5
COCCOC(=O)N1C(=O)[C@@]2(c3cc(C#CCC(C(=O)OC)C(=O)OC)ccc31)[C@H](C(=O)N1CCc3cc(OC)c(OC)cc3C1)[C@H]1C(=O)O[C@H](c3ccccc3)[C@H](c3ccccc3)N1[C@@H]2c1ccc(O)cc1	-1.7
CCCCN1C(=O)C(=O)NC[C@H]1Cc1cccc2ccccc12	2.0
C[C@@H]1CN([C@@H](C)CO)C(=O)c2cc(C#Cc3ccc(F)cc3)cnc2O[C@@H]1CN(C)C(=O)Nc1ccc(F)cc1	0.4
COc1cccc(-c2ccc(CC[C@H]3O[C@H]4CC[C@@H](CO)O[C@H]4C[C@@H]3NC(=O)c3cnccn3)cc2)c1	5.6
Cc1ccc(Cc2c(-c3ccc(C)cc3)nc3c(C)cc(Br)cn23)cc1	-2.3
OC[C@H]1[C@@H](c2ccc(C#CC3CCCC3)cc2)[C@H]2CN(CCC(F)(F)F)CCCCN21	7.9

(list continues)
compound	MLL AF4-AF9 inh
CC1(Cc2ccc(Cl)c(Cl)c2)C(=O)Nc2ccc(S(=O)(=O)NC3CCCCC3)cc21 (configuration not stated)	0.1
CC(C)(C)C1CCN2CCC[C@](c3ccccc3)(C1)C2OCCCO (some centres not stated)	1.4
N#CC(OC(=O)c1ccccc1)c1ccccc1 (configuration not stated)	2.0
O=C(Nc1ccccc1F)N1CCCCN2[C@H](CO)[C@@H](c3ccc(C4=CCCCC4)cc3)[C@H]2C1	19.1
CN(C)C(=O)[C@@]1(Cc2ccccc2CN=[N+]=[N-])COC(c2ccc(OCCCO)cc2)=N1	0.8
COc1ccc([Si](C)(C)[C@@H]2[C@@H](CCn3cc(CCO)nn3)O[C@]3(C(=O)N(Cc4ccc(N5CCOC5=O)cc4)c4ccccc43)[C@H]2C)cc1	2.5
CCO[C@@H]1OC(C(=O)N2CCN(Cc3ccccc3)CC2)=C[C@H](c2ccc3c(c2)OCO3)[C@H]1CCCO	1.6
O=C(NC[C@H]1CC[C@@H]2[C@@H](CN2S(=O)(=O)c2ccccc2F)O1)C1CCCCC1	-1.4
C[C@H]1CN([C@@H](C)CO)C(=O)c2cccc(NC(=O)c3ccncc3)c2O[C@H]1CN(C)Cc1ccc(Oc2ccccc2)cc1	7.5
COc1ccc(C#Cc2cnc3c(c2)C(=O)N([C@H](C)CO)C[C@H](C)[C@H](CN(C)S(=O)(=O)c2cccs2)O3)cc1OC	0.8&1.5
COC(=O)c1cn(CC(=O)N2CCC3(CC2)C(=O)NCN3c2ccccc2)nn1	-1.2
COc1cccc(NC(=O)N2CCc3nc(NCc4cccc(Oc5ccccc5)c4)ncc3C2)c1	-7.4

More structures follow.
compound	MLL AF4-AF9 inh
CC(C)NC(=O)C1(C)CCN1C(=O)c1cccn1C (configuration not stated)	-3.2
Nc1nc2c(ncn2[C@@H]2O[C@H](CNCc3ccc4ncccc4c3)[C@@H](O)[C@H]2O)c(=O)[nH]1	0.7
CC(=O)NCCCC[C@@H]1NC(=O)[C@H]2C[C@@H](C(=O)NCCCCCCNC(=O)CS)[C@@H](c3ccc(O)cc3)N2C1=O	-4.9
Cc1ccc(NC(=O)/C=C/c2ccc(S(=O)(=O)N3CCOCC3)cc2)cc1S(=O)(=O)N(C)C	3.7
C[C@@H]1CCCCO[C@@H](CN(C)C(=O)C2CCCCC2)[C@H](C)CN([C@@H](C)CO)C(=O)c2cc(NC(=O)NC3CCCCC3)ccc2O1	2.1
CCCNc1ncnc2ccc(Br)cc12	-8.0
Cc1ccc(NC(=O)C2(C)CCN2C(=O)CCC2CCCC2)cc1C (configuration not stated)	1.7
C[C@@H]1CCCCO[C@H](CN(C)S(=O)(=O)c2ccccc2)[C@@H](C)CN([C@@H](C)CO)C(=O)c2cc(N(C)C)ccc2O1	7.4
C#Cc1ccc([C@@H]2C=C(C(=O)Nc3ccccc3)O[C@H](OCc3ccc(CO)cc3)C2)cc1	-8.6
CN(C)C(=O)c1ccc(-c2cccc(-c3nc(C(=O)NC4CCCCC4)cc4c3[C@@H](CCO)N([S@](=O)C(C)(C)C)C4)c2)cc1	8.9
CCc1cc(=O)oc2cc(OC(C)C(=O)N3CC[C@@]4(O)CCCC[C@H]4C3)ccc12 (some centres not stated)	0.4
COC(=O)[C@]1(Cc2ccccc2)N=C(c2ccc(OCCCO)cc2)O[C@@H]1c1ccccc1N=[N+]=[N-]	12.5

Following part
compound	MLL AF4-AF9 inh
COC(=O)c1c(CC[C@@H](CO)NC(=O)N[C@H](Cc2ccccc2)Cn2cc(-c3ccccc3N)nn2)oc(C(C)=O)c1C(=O)OC	-0.4
CCCNC(=O)[C@@]1(c2ccc([N+](=O)[O-])cc2)CC(=O)N(CC23CC4CC(CC(C4)C2)C3)[C@@H]1c1ccc(CO)cc1I	0.2
CCCC(=O)Nc1ccc(S(=O)(=O)N2CCc3ccccc32)cc1	-0.3
CN(C(=O)CSc1nc2ccccc2c(=O)n1-c1ccc(F)cc1)C1CCS(=O)(=O)C1 (configuration not stated)	1.1
CC#CCN(Cc1ccco1)C(=O)C1CCC(=O)N(CCc2cccc(F)c2)C1 (configuration not stated)	-4.1
O=C(c1ccc(F)cc1)N1CCCCN2[C@H](CO)[C@H](c3ccc(-c4ccc(F)cc4)cc3)[C@H]2C1	2.2
O=C(NCc1ccc(Cl)c(Cl)c1)c1cc(C2CCCCN2C(=O)OCCF)on1 (configuration not stated)	0.3
COCCOC(=O)N1C(=O)[C@@]2(c3cc(C#CCNC(N)=O)ccc31)[C@H](C(N)=O)[C@H]1C(=O)O[C@H](c3ccccc3)[C@H](c3ccccc3)N1[C@@H]2c1ccccc1OCCO	5.5
CC(C)(C)c1ccc(CC(=O)N2CCC2(C)C(=O)Nc2cccc3c2CCCC3)cc1 (configuration not stated)	1.5
COCCOC(=O)N1C(=O)[C@@]2(c3ccccc31)[C@H](C(=O)N1CCN(c3ncccn3)CC1)[C@H]1C(=O)O[C@H](c3ccccc3)[C@H](c3ccccc3)N1[C@@H]2c1ccc(O)cc1	0.8
O=C1[C@H]2[C@@H]3CCN1CCC[C@@H]2C=C[C@@H]3c1ccc(Br)cc1	2.4
COc1ccccc1Cc1c(-c2ccc(Cl)cc2)nc2c(C)cc(Br)cn12	-2.6

Further results follow:
compound	MLL AF4-AF9 inh
Cc1ccnc2nc(C(=O)OCC(=O)N(C)C3CCCCC3)nn12	-4.7
Cc1ccc(Cc2c(-c3cccc(Cl)c3)nc3ccc(Br)cn23)cc1	-4.2
CCCNC(=O)C1(C)CCCN(Cc2ccccc2C#N)C1 (configuration not stated)	0.8
C=CCOC(=O)[C@H]1[C@@H]2C(=O)O[C@@H](c3ccccc3)[C@@H](c3ccccc3)N2[C@@H](c2ccc(OCCOC(=O)[C@H]3C[C@H]4C(=O)N[C@@H](Cc5ccccc5)C(=O)N4[C@H]3c3ccc(O)cc3)cc2)[C@]12C(=O)Nc1ccc(I)cc12	-1.4
C=CCNC(=O)[C@@H]1[C@H]2C(=O)O[C@H](c3ccccc3)[C@H](c3ccccc3)N2[C@H](c2ccccc2OCCO)[C@@]12C(=O)N(C(=O)OCCOC)c1ccc(C#CC3=CCCCC3)cc12	-1.3

Grouped by structure: those above containing a COOH group.
compound	MLL AF4-AF9 inh
COCC1CC(c2ccccc2)OC(c2ccc(NC(=O)CCCCCCC(=O)O)cc2)O1 (configuration not stated)	-3.6
O=C(O)C1(O)C[C@@H](O)C(O)[C@H](O)C1 (some centres not stated)	-1.7
CCC(C)C(N)C(=O)N1CCCC1C(=O)NC(C(=O)O)C(C)CC (configuration not stated)	-0.5
CC(C)c1c(C(=O)Nc2ccccc2)c(-c2ccccc2)c(-c2ccc(F)cc2)n1CC[C@@H](O)C[C@@H](O)CC(=O)O	4.3
